miR-21 reporter: qHTS Assay for Modulators of miRNAs and/orActivators of miR-21. HeLa miR-21 FLuc reporter, luciferase, 48 h. 340,000 tested, under 10 active. AID 2288, 2010. Potency, µM (series often up to 38.3 µM), for the others: top-dose reporter change, positive = more light; active = well fitted rising curve with a large enough effect; inconclusive = small, poorly fitted or top-dose-only effect; inactive = no such curve, though single readings can be large or run the other way;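 further: % of control where 0% means no effect; miR-21 action dims this reporter so a rising signal means less miR-21 action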
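Compounds were titrated across several concentrations (up to approximately 40 uM) and incubated 48 hours with HeLa miR-21-FLuc reporter cells (miR-21 target sequence downstream of FLuc, endogenous miR-21). Readout was firefly luciferase luminescence after lytic detection reagent.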
Rango complex inh: qHTS Assay for Inhibitors of Rango (Ran-regulated importin-beta cargo) - Importin beta complex formation. Potency, µM (top dose mostly 92.2 µM), for inactives: top-dose inhibition of complex formation. Rango CFP/YFP FRET sensor + importin beta, 45 min. actives 0.031% (n = 340,000). AID 540263, 2011. Importin subunit beta-1 (Homo sapiens), Q14974; active = rising FRET ratio curve, often small or poorly fitted; inconclusive = mostly compound fluorescence or quenching in the first reads; inactive = flat curves in all reads;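 further: potency means the concentration at half of the fitted maximal effect; 0% = DMSO wells and 100% = buffer wells lacking importin beta; nearly all actives have a fitted effect of over 15% in size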
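FRET biosensor (snurportin 1 IBB flanked by EYFP and cerulean), 50 nM, with compound 5 min, then 0.125 microM importin beta in PBS, 1 mM DTT, 0.02% Tween-20, 0.1% BSA. CFP/YFP ratio read after 45 min at room temperature; pre-read flags interference.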
GLA inh pH 4.5: qHTS Assay for Inhibitors of Human alpha-Galactosidase at pH 4.5. purified enzyme, 4-MU-alpha-Gal fluorescence, pH 4.5. 230,000 tested, under 10 active. Alpha-galactosidase A (Homo sapiens), P06280. activity change, negative = inhibition, % at 105 µM; inconclusive = small, poorly fitted or top-dose-only inhibition, or a rising curve; inactive = flat fitted curve, though single readings scatter; no compound was filed as active;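 further: 0% = full activity with enzyme and -100% = basal without enzyme; dose as in the result columns while the protocol names 77 µM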
Target sequence (P06280 whole entry, looked up): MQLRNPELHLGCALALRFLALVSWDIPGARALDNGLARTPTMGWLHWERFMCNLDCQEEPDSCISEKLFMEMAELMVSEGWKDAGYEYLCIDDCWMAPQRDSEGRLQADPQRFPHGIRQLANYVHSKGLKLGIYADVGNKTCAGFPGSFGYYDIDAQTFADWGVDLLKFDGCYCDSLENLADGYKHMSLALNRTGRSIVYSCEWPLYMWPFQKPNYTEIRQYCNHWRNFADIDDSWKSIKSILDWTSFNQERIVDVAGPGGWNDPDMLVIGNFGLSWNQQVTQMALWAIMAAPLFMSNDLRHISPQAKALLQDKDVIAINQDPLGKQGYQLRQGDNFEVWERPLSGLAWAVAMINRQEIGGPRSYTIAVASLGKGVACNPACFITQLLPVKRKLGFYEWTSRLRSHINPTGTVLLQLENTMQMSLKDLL
Rango dissoc inh: qHTS Assay for Inhibitors of RanGTP induced Rango (Ran-regulated importin-beta cargo) - Importin beta complex dissociation; Biochemical FRET Rango-importin beta, RanGTP-induced dissociation; AID 540253, 2011; actives 0.071% (n = 340,000); Potency, µM (series often up to 46.1 µM), inactives show top-dose activity change, negative = inhibition; active means falling FRET ratio curve, often poorly fitted, with flat reads before Ran was added; inconclusive means other falling curves, or compound fluorescence or quenching; inactive means flat or rising ratio curve;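 further: potency means the concentration at half of the fitted maximal effect; % of control where 0% means no effect; nearly all actives have a fitted effect of over 45% in size; -100% = wells without RanGTP and RCC1; the record marks most hits as doubtful in a second field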
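Rango FRET biosensor (snurportin-1 IBB flanked by N-terminal EYFP and C-terminal CFP10) at 0.1 uM, with 0.25 uM importin beta in PBS, 1mM DTT, 0.02% Tween-20, 0.1% BSA. 0.6 uM Ran, 2mM GTP and 0.2 uM RCC1 were then added for 45 min at room temperature. Inhibition read as loss of FRET rise.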
An asterisk follows results filed as active; ? = inconclusive; . = no result given; & = joins results of further samples.

miR-21 reporter | Rango complex inh | GLA inh pH 4.5 | Rango dissoc inh | Compound
0.5% | -0.8% | 6.9 | 14.2% | CCC(=O)N1c2ccccc2NC2=C(C(=O)CC(C)(C)C2)C1c1cccnc1 (stereo not drawn)
. | -3.1% | . | -5.8% | COc1ccc2sc(-c3ccc(SC)cc3)c(C#CCO)c2c1
. | -2.5% | . | 28.2% | CCS(=O)(=O)c1ccc(-c2cccc(NC(=O)c3ccco3)c2)nn1
. | 0.6% | . | 2.4% | CCCN(C(=O)CCNC(=O)c1ccc(Cl)cc1)c1c(N)n(Cc2ccccc2)c(=O)[nH]c1=O
-16.3% | -1.7% | . | -27.7% | O=C(N1CCCCC1)C1(S(=O)(=O)c2ccccc2)CC=CC1
. | -3.9% | . | -1.7% | CN(C)S(=O)(=O)c1cccc(NC(=O)c2cccc(S(=O)(=O)N3CCCCC3)c2)c1
-3.1% | 1.2% | 2.5 | 0.4% | Cc1ccc(S(=O)(=O)N2CCCC2C(=O)N(C)Cc2cccs2)cc1 (stereo not drawn)
-17.6% | 1.1% | -3.3 | 0.5% | O=C1c2cccc3cccc(c23)C(=O)N1c1cccnc1
-4.1% | -0.7% | 6.9 | 1.7% | Cc1c(NC(=O)COC(=O)c2ccc[nH]c2=O)c(=O)n(-c2ccccc2)n1C
-9.6% | . | 2.5 | . | Cc1ccc2nc(-c3ccccn3)cc(C(=O)NC3CCN(C)CC3)c2c1
-9.2% | 2.6% | -2.8 | -7.3% | COc1ccc(C(=O)c2ccc(N3CCN(C4CC(=O)NC4=O)CC3)cc2)cc1F (stereo not drawn)
-1.7% | 5.8% | . | -15.3% | CN(C)c1ccc(NC(=O)c2cccc([N+](=O)[O-])c2)c2ccccc12
-15.3% | -1.4% | 2.7 | 12.6% | CCn1cc(SCC(=O)NCC2CCCO2)c2ccccc21 (stereo not drawn)
. | -1.5% | . | 0.3% | NS(=O)(=O)c1cccc(NC(=O)COC(=O)CC2Sc3ccccc3NC2=O)c1 (stereo not drawn)
0.3% | 1.7% | 4.7 | -4.8% | CCOC(=O)Cn1cnc2c(nnn2-c2ccc(C)cc2)c1=O
0.4% | -2.0% | 2.6 | -2.9% | COc1ccc(CNC(=O)CN(Cc2ccc(C)cc2)S(=O)(=O)c2ccc(Cl)cc2)cc1
-20.5% | -0.5% | -11.9 | -3.0% | COCC(=O)N1CCCC(C(=O)c2ccc3c4c(cccc24)CC3)C1 (stereo not drawn)
. | -2.5% | . | 0.4% | O=C(NCCCN1CCOCC1)C1CCN(S(=O)(=O)c2ccccc2)CC1
-31.9% | -2.2% | -7.3 | -13.8% | Cc1cc(C)nc(NC(=O)/C=C/c2ccc3c(c2)OCO3)c1
3.9% | -1.9% | -0.9 | 0.3% | O=C(CSC1CS(=O)(=O)c2cc([N+](=O)[O-])ccc21)NNC(=O)c1ccc(Cl)cc1 (stereo not drawn)
-7.7% | -3.4% | -2.9 | -1.3% | CCOC(=O)c1cc(-c2cccs2)nn1CCC#N
-4.4% | -1.5% | 3.7 | -14.2% | COC(=O)c1ccc(Oc2nc(C(N)=O)cc(-c3ccccc3)n2)cc1
1.0% | 0.0% | 2.8 | -12.0% | Cc1nc(SCc2ccccc2)c(C(F)(F)F)c(=O)[nH]1
-1.5% | -5.2% | 1.3 | ? | CCCCCCC(=O)Nc1nc(C)c(-c2csc(Nc3cc(Cl)ccc3OC)n2)s1
-47.2% | ? | 1.0 | -9.7% | Nc1ncc(-c2cc3ccccc3oc2=O)s1
-22.7% | -0.9% | -14.7 | 14.7% | COc1ccc(-c2nnc(CSc3ncnc4sc5c(c34)CCC5)o2)cc1OC
-5.0% | -0.9% | -0.9 | -6.4% | Cc1cc(C)cc(C(=O)Oc2coc(CSc3nnc(NC(=O)C4CC4)s3)cc2=O)c1
. | 2.7% | . | -0.2% | C/C(=N\NC(=O)CCC(=O)NCc1ccccc1)c1ccc([N+](=O)[O-])cc1
-9.6% | 0.0% | 1.9 | 0.0% | Cc1ccc2nc(C)c3c(c2c1)SCC3
. | 0.1% | . | 0.6% | CC(NC(=O)COC(=O)CSc1ccc(F)cc1)c1ccc(F)cc1 (stereo not drawn)

Some of these compounds in order of their number in Rango dissoc inh, falling.
mol,miR-21 reporter,Rango complex inh,GLA inh pH 4.5,Rango dissoc inh
CCC(=O)N1c2ccccc2NC2=C(C(=O)CC(C)(C)C2)C1c1cccnc1 (stereo not drawn),0.5%,-0.8%,6.9,14.2%
O=C(CSC1CS(=O)(=O)c2cc([N+](=O)[O-])ccc21)NNC(=O)c1ccc(Cl)cc1 (stereo not drawn),3.9%,-1.9%,-0.9,0.3%
COc1ccc2sc(-c3ccc(SC)cc3)c(C#CCO)c2c1,.,-3.1%,.,-5.8%

Continuation.
miR-21 reporter | Rango complex inh | GLA inh pH 4.5 | Rango dissoc inh | Compound
-5.1% | 1.5% | . | 0.7% | Cn1cc(S(=O)(=O)Nc2cccc3ccccc23)c(=O)n(C)c1=O
-8.5%&-10.1% | -1.9%&0.5% | . | -6.4%&2.8% | CCN(CC)N=Nc1ccc(S(=O)(=O)Nc2nc(C)cc(C)n2)cc1
. | 0.0% | . | 15.8% | N#CCCCc1cc2ccccc2cn1
-3.0% | -1.2% | . | -6.0% | COc1ccc(S(=O)(=O)N2CCCOC2CNC(=O)C(=O)NCc2ccccn2)cc1 (stereo not drawn)
-9.1% | 1.6% | -4.9 | 3.2% | CC(=O)Nc1ccccc1C(=O)C(=O)Nc1cccc(C(=O)NCC2CCCO2)c1 (stereo not drawn)
-3.6% | -0.1% | 1.2 | -11.8% | COc1cc(/C=C/C(=O)Nc2nnc(CC(C)(C)C)s2)cc(OC)c1OC
. | ? | . | -5.6% | O=C(COC(=O)c1ccc(O)cc1)Nc1cc(S(=O)(=O)N2CCOCC2)ccc1N1CCOCC1
-8.0% | ? | 0.6 | ? | CCc1ccc(-c2cc(C(F)(F)F)n3nc(C(=O)Nc4c(C)nn(Cc5ccc(F)cc5)c4C)cc3n2)s1
. | 0.4% | . | 4.2% | COC(=O)[C@H](Cc1ccc(O)cc1)NC(=O)Cn1cnc2c(OCc3ccccc3)ncnc21
-15.9% | 4.2% | -2.5 | 0.4% | COc1ccc(C2NC(=S)NC3=C2CCCC3=C2SCCS2)cc1 (stereo not drawn)
-1.4% | ? | ? | ? | COCC(C)OC(=O)c1c(N)n(CC(C)C)c2nc3ccccc3nc12 (stereo not drawn)
. | 0.9% | . | -16.0% | O=C(CN1CCCc2ccccc21)Nc1cccc(S(=O)(=O)N2CCOCC2)c1
1.5% | -2.6% | 2.4 | 14.0% | CCCCNC(=O)Nc1ccccc1CC
11.0% | 1.9% | . | -10.6% | CCN(Cc1ccccc1)C(=O)c1ccc(C(=O)N(CC)Cc2ccccc2)cc1
0.3% | ? | 5.9 | 0.0% | O=C1OC(c2cccs2)=N/C1=C\c1ccc(-c2ccccc2Cl)o1
-0.3% | 0.5% | . | -7.9% | CCOC(=O)N1CCN(C(=O)C2CCN(C(=O)c3ccc([N+](=O)[O-])cc3)CC2)CC1
. | 0.6% | . | 5.9% | O=C(NCCC1CCCCN1S(=O)(=O)c1ccc(F)cc1)C(=O)Nc1ccccc1 (stereo not drawn)
. | 3.7% | . | 17.1% | CCN(c1ccccc1)S(=O)(=O)c1cccc(C(=O)NCC(c2cccs2)N2CCOCC2)c1 (stereo not drawn)
-17.2% | -0.4% | 5.2 | -18.9% | COc1ccc(/C=C/C(=O)Oc2ccc(/C=N/NC(=O)c3ccccc3)cc2)cc1OC
-45.1% | 0.6% | . | -16.0% | O=C(Nc1cccnc1)c1ccc2ccccc2c1O
-0.2% | 2.7% | -0.7 | 7.0% | Cn1c(N)c(C(=O)COC(=O)CCCN2C(=O)c3ccccc3C2=O)c(=O)n(C)c1=O
0.4% | ? | . | -7.1% | COc1ccc(CN(C)C(=O)c2ccc(NS(=O)(=O)c3ccc4[nH]c(=O)[nH]c4c3)cc2)c(OC)c1
-4.4% | -0.9% | 3.2 | 7.0% | CCN(CC)CCCC(C)NC1=NCCCCC1 (stereo not drawn)
-2.2% | 2.0% | 5.7 | -4.9% | Cc1cc(NC(=O)c2ccc3c(c2)OCCO3)ccc1NC(=O)c1ccco1
-7.2% | -0.7% | -2.1 | -3.8% | CCOC(=O)C1CCCN(c2c(NCCN3CCCCC3CC)c(=O)c2=O)C1 (stereo not drawn)
1.1% | -4.3% | . | ? | O=C(Nc1ccccc1)c1ccc(NC(=O)c2cccs2)cc1
-25.0% | 2.2% | -2.1 | 1.3% | Cc1ccc(C(=O)OCc2cn3ccccc3n2)cc1
-3.7% | 0.2% | . | 6.7% | O=C(NCC1CCOCC1)C1CCC(=O)N(Cc2cccc(C(F)(F)F)c2)C1 (stereo not drawn)
0.6% | -0.2% | -0.3 | 13.5% | CC1(C)NC(=O)N(CC(=O)OCC(=O)Nc2cc(S(=O)(=O)N3CCCCC3)ccc2Cl)C1=O
-11.7% | 0.7% | 10.6 | 21.2% | Nc1cc(=O)[nH]c(SCC(=O)N2N=C(c3ccc4ccccc4c3)CC2c2ccccc2)n1 (stereo not drawn)
-54.3% | 4.1% | -9.7 | 6.8% | COc1ccc(-c2csc(NC3=NCCCCC3)n2)cc1
-5.1% | -1.3% | -9.9 | 13.8% | COc1ccc(C(=O)n2ncc(C#N)c2N)cc1
-9.3% | 3.7% | 1.1 | 1.6% | CC(=O)Nc1ccc(S(=O)(=O)Nc2nnc(C3CCCCC3)s2)cc1
-4.0% | -2.6% | 7.0 | 7.8% | Cc1nc(-c2ccc(Cl)cc2)sc1C1(C)CC(c2ccc(OC(F)(F)F)cc2)=NO1 (stereo not drawn)
-5.4% | ? | -7.7 | -3.3% | CC(C)CC(=O)Nc1ccccc1N1CCCC1
. | 3.8% | . | 1.5% | CN(CC(=O)Nc1ccc(Cl)cc1)C(=O)CCNC(=O)c1ccc(Cl)cc1
6.4% | 3.9% | -2.0 | -13.5% | O=C(NCc1ccco1)c1cc(S(=O)(=O)N2CCCc3ccccc32)ccc1Cl
1.1% | 4.7% | . | -21.5% | COc1ccc(C)cc1N(C(=O)c1ccco1)C(C(=O)NC1CCCC1)c1ccc(N2CCOCC2)cc1 (stereo not drawn)
-2.7% | 0.4% | 8.3 | 9.0% | CCOc1ccc(NC(=O)C(C)Sc2nnc(C)n2C)cc1 (stereo not drawn)
-0.6% | 0.3% | . | 9.0% | Cc1cc(=O)[nH]c(SCC(=O)Nc2nonc2C)n1
-5.8% | -0.2% | 1.0 | 10.5% | CCSCCNC(=O)c1cc(-n2cnnc2)ccc1Cl
. | -3.3% | . | 6.8% | Cc1cc(C(=O)COC(=O)c2ccc(O)cc2O)c(C)n1-c1ccc(OC(F)F)cc1
-4.5% | -3.9% | 1.7 | 28.6% | CCOCCCN1C(=O)CN(C2CCCCC2)C(=O)C1c1ccc(OC)c(OC)c1 (stereo not drawn)
-4.2% | -2.8% | . | -4.9% | COc1cc(OC)cc(C(=O)NCC(=O)Nc2ccc(-c3ccccc3)cc2)c1
. | 0.2% | . | 0.1% | CC(C)(C)OC(=O)NC(CNCc1ccccc1)Cc1ccccc1 (stereo not drawn)
. | 4.2% | . | 14.5% | COc1ccc(CNC(=O)COC(=O)c2cc3ccccc3o2)cc1
0.2% | -3.5% | . | 7.6% | O=C(COc1ccc2ccc(=O)oc2c1)NCCCn1ccnc1
. | 0.0% | . | 0.0% | O=C(CSc1nc(C(F)(F)F)cc(=O)[nH]1)NCC1CCCO1 (stereo not drawn)
9.3% | 1.3% | -6.1 | -7.7% | CN(C)S(=O)(=O)N(CC(=O)N(Cc1ccccc1)Cc1ccccc1)c1ccccc1
-0.1% | 5.8% | -9.2 | 13.6% | C(=C\CSc1nnnn1-c1ccccc1)/CSc1nnnn1-c1ccccc1
0.2% | 3.4% | . | -10.9% | CCOC(=O)N1CCN(S(=O)(=O)N2CCCC(C(=O)NCCCN3CCC(C)CC3)C2)CC1 (stereo not drawn)

Not all compounds are listed; the hit share may differ from the screen's.
